# 2A firefly = FMDV 2A StopGo reporter, firefly signal | actives 0.23% (n = 120,000) | AID 1745856 | HEK cells with a luciferase reporter of 2A StopGo recoding | Potency, µM (titrated, usually from 57.5 µM), for the others: at the top dose signal change, negative = less light; active = well fitted falling curve with a large enough effect; inconclusive = small, poorly fitted or top-dose-only effect; inactive = no such curve, though single readings can be large or run the other way; also: nearly all actives have a fitted effect of over 60% in size; overnight with compound
# StopGo RLuc = lowers the Renilla signal of an FMDV 2A StopGo reporter | HEK cells with a luciferase reporter of 2A StopGo recoding | Potency, µM (doses to about 57.5 µM), for the others: top-dose signal change, negative = less light | actives 0.32% (n = 120,000) | AID 1745857; active means well fitted falling curve with a large enough effect; inconclusive means small, poorly fitted or top-dose-only effect; inactive means no such curve, though single readings can be large or run the other way; also: nearly all actives have a fitted effect of over 55% in size; overnight with compound
# The depositor's hits bear a star; ? = inconclusive; [ ] = dose if it differs, or a comment. % is scaled to controls: 0 for no effect and ±100 for the full control effect; potency is read from the fitted curve at half-maximal effect. An excerpt. The share of hits here may be higher or lower than overall.
SMILES,2A firefly,StopGo RLuc
Cc1cc(NC(=O)CSc2nc(NC3CC3)c3ccccc3n2)no1,0%,-9%
O=C(Nc1ccc(F)c(F)c1)c1ccc(S(=O)(=O)C2CCS(=O)(=O)C2)cc1 (configuration not stated),-4%,-13%
COc1ccc(-n2c(=O)c3c(C)c(C)sc3n(Cc3ccc(F)cc3)c2=O)c(OC)c1,18%,-2%
CCC1CN(C(=O)N2CCC(C(=O)NCc3cccc(F)c3)CC2)c2cc(C)ccc2O1 (configuration not stated),?,19%
CC1(C)C(=O)N(CC(=O)Nc2cccc(F)c2)c2ccc(S(=O)(=O)N3CCCCC3)cc21,-10%,0%
Cc1ccc(Nc2c3c(nc4nncn24)CCC3)cc1C,0%,6%
Cc1ncsc1C(=O)NCc1cccnc1,0%,0%
CN(CC(=O)NC(=O)NCc1ccccc1)CC(=O)Nc1cccc(F)c1,?,13%[1.06 µM]
CCOCCCNCc1cccc(Br)c1,-10%,-3%
COc1ccccc1-c1cc(NC(=O)CCC2CCCO2)n[nH]1 (configuration not stated),11%,24%
CCN(CC)C(=S)SSC(=S)N(CC)CC,11%,19%
O=C(COc1ccc(Cl)cc1)Nc1ccc2c(c1)N(C(=O)c1cccnc1)CC2,?,?
CC(=O)Nc1ccc(Nc2ncnc3c2c(-c2ccccc2)cn3-c2ccc(C)c(Cl)c2)cc1,-11%,-7%
CC(C)(C)C(=O)NCc1cccc(Oc2ccccc2)c1,48%[activator],-20%
COc1ccc(Br)cc1C(=O)Nc1ccc(-c2nc3ncccc3o2)cc1C,-5%,-6%

# The final 2 entries of the part before come first, to join the parts:
SMILES,2A firefly,StopGo RLuc
CC(C)(C)C(=O)NCc1cccc(Oc2ccccc2)c1,48%[activator],-20%
COc1ccc(Br)cc1C(=O)Nc1ccc(-c2nc3ncccc3o2)cc1C,-5%,-6%
O=C(CSc1nnnn1C1CCCC1)NC(c1ccc(F)cc1)c1cccs1 (configuration not stated),-5%,27%
CN(C)c1ncccc1CNC(=O)Cc1ccccc1F,95%[activator],6%
COc1ccc(CC(=O)Nc2ccc3c(c2)NC(=O)C(C)O3)cc1 (configuration not stated),24%,12%
CC(C)Cc1nc(NCCN)c(C#N)c2c1CCCC2,10%,8%
O=C(CCSC1CCc2ccccc2NC1=O)Nc1ccc2c(c1)OCCO2 (configuration not stated),46%[activator],12%
CCCN1CCC(NC(=O)c2csc3c2CCC(C)C3)CC1 (configuration not stated),-9%,-10%
COc1cccc(C2C3=C(CCCC3=O)Nc3c(C#N)cnn32)c1OC (configuration not stated),14%,-2%
Cc1ccc(C2Nc3ccccc3-n3c(-c4ccccc4)c4c(=O)n(C)c(=O)n(C)c4c32)cc1 (configuration not stated),-4%,6%
CCC(NC(=O)Nc1cc(Cl)ccc1OC)c1c(-n2cccc2)sc2c1CCN(C)C2 (configuration not stated),-22%,-15%
CCCN1C(SCC(=O)Nc2c(C)cccc2C)=NS(=O)(=O)c2ccccc21,1%,0%
Cc1ccc2[nH]cc(S(=O)(=O)c3ccc(C)c(C)c3)c(=O)c2c1,7%,9%
Cc1ccc(-c2c(C(F)(F)F)nn3c(N4CCN(CCO)CC4)cc(C)nc23)cc1,-8%,-10%
Brc1ccc(CN2CCc3nc(N4CCN(c5ncccn5)CC4)ncc3C2)cc1,-25%,?
COc1ccc(CNC(=O)CCC(=O)N2CC3CCCN3c3ccccc32)c(OC)c1 (configuration not stated),-7%,8%
Cc1cccc(-n2c(=O)c3c4c(sc3n3c(C)nnc23)CCCC4)c1,-9%,-14%

# A draw from above in order of formula weight, lowest first.
SMILES,2A firefly,StopGo RLuc
CN(C)c1ncccc1CNC(=O)Cc1ccccc1F,95%[activator],6%
Cc1cccc(-n2c(=O)c3c4c(sc3n3c(C)nnc23)CCCC4)c1,-9%,-14%
O=C(CCSC1CCc2ccccc2NC1=O)Nc1ccc2c(c1)OCCO2 (configuration not stated),46%[activator],12%
O=C(CSc1nnnn1C1CCCC1)NC(c1ccc(F)cc1)c1cccs1 (configuration not stated),-5%,27%

# Continuation:
SMILES,2A firefly,StopGo RLuc
Cc1cc(C)c(NC(=O)CNC(=O)c2nccnc2N)c(C)c1,17%,-1%
COc1ccc(-c2cc(NC(=O)CC3Sc4ccccc4NC3=O)ccc2OC)cc1 (configuration not stated),0%,308%[activator]
CC(=O)c1sc(NC(=O)c2nn(Cc3ccccc3)c(=O)c3ccccc23)nc1C,4%,-10%
CCOc1ccc(NC(=O)CSc2c3c(nc4ccccc24)CCCC3)cc1,3%,-5%
COc1cc(C#N)ccc1OC(C)C(=O)c1ccc(Cl)cc1 (configuration not stated),0%,-10%[1.06 µM]
COc1ccc(NC(=O)c2c(NCc3cccs3)sc3c2CCCCC3)cc1,0%,4%
CC(=O)Nc1ccc(NS(=O)(=O)c2ccc3c(c2)CC(C)N3C(=O)C2CCC2)cc1 (configuration not stated),?,4%
COc1ccc(NC(=O)[C@H](Cc2ccccc2)N2Cc3ccccc3C2=O)cc1OC,2%,9%
COc1cccc(-c2cc(C(F)(F)F)nc(-n3nc(C)c(Br)c3C)n2)c1,-4%,-7%
Cc1ccc(C)c(N2CCN(C(=O)CN3C(=O)CSc4c3c(C)nn4-c3ccccc3)CC2)c1,-17%,-11%
O=C(O)C(c1c[nH]c2ccccc12)N1CCN(c2ncc(Br)cn2)CC1 (configuration not stated),7%,4%
CS(=O)(=O)Oc1ccc2c(c1)O/C(=C\c1ccc(Cl)cc1Cl)C2=O,19%,15%
Cc1ccc2occ(CC(=O)Nc3c(C(=O)Nc4ccc(Cl)cc4)oc4ccccc34)c2c1,41%[activator],-10%
COc1cc(CC(=O)Oc2ccccc2Br)cc(OC)c1OC,-11%,9%
Cc1ccc(-n2nnnc2CNC(=O)Nc2ccc3c(c2)OCO3)cc1,0%,33%[activator]

# Laid out differently: entries from further up.
smiles | 2A firefly | StopGo RLuc
CC(=O)Nc1ccc(NS(=O)(=O)c2ccc3c(c2)CC(C)N3C(=O)C2CCC2)cc1 (configuration not stated) | ? | 4%
COc1ccc(NC(=O)[C@H](Cc2ccccc2)N2Cc3ccccc3C2=O)cc1OC | 2% | 9%
COc1cccc(-c2cc(C(F)(F)F)nc(-n3nc(C)c(Br)c3C)n2)c1 | -4% | -7%
Cc1ccc(C)c(N2CCN(C(=O)CN3C(=O)CSc4c3c(C)nn4-c3ccccc3)CC2)c1 | -17% | -11%
O=C(O)C(c1c[nH]c2ccccc12)N1CCN(c2ncc(Br)cn2)CC1 (configuration not stated) | 7% | 4%
CS(=O)(=O)Oc1ccc2c(c1)O/C(=C\c1ccc(Cl)cc1Cl)C2=O | 19% | 15%
Cc1ccc2occ(CC(=O)Nc3c(C(=O)Nc4ccc(Cl)cc4)oc4ccccc34)c2c1 | 41%[activator] | -10%

# Next entries.
SMILES,2A firefly,StopGo RLuc
Cc1nc2ccc(C(=O)NCc3ccccc3)cc2nc1C,162%[activator],2%[1.06 µM]
CC(=O)c1ccc(N2CCN(C(=O)CCCCn3c(=O)[nH]c4ccccc4c3=O)CC2)cc1,12%,-9%
COc1cc(/C=C2/NC(=O)NC2=O)ccc1OCc1ccc(C(=O)O)cc1,19%,5%
CC(=O)NCc1cc(-c2nn(C)c(=O)c3ccccc23)ccc1C,6%,4%
Cc1ccc(C(=O)c2cccc(C(=O)c3ccc(C)c(C)c3)c2)cc1C,0%,-1%
CCC1CCCCN1CCCNC(=O)c1c(C)oc2ncn(CC(C)C)c(=O)c12 (configuration not stated),-4%,-18%
COc1ccc(-c2nnc(SC(C)C(=O)O)o2)cc1 (configuration not stated),19%,-2%
O=C(Cn1nc(N2CCN(c3ccccc3)CC2)ccc1=O)NCc1ccccc1F,-4%,2%
CCOc1ccc2nc(N3CCC(C(=O)NCCc4cc(OC)ccc4OC)CC3)sc2c1,119%[activator],-5%
COc1cc(Nc2nc(SCc3ccc(Cl)cc3)nc3ccccc23)cc(OC)c1,-21%,-9%
COc1ccc(NS(=O)(=O)c2ccc(-c3cc(C(F)(F)F)on3)s2)cc1OC,?,?
COc1ccc(CNc2oc(-c3cccc([N+](=O)[O-])c3)nc2P(=O)(OC)OC)cc1,-19%,-11%
Cc1sc(NC(=O)c2ccsc2)c(C#N)c1C,147%[activator],11%
CC1CCN(S(=O)(=O)c2ccc(C(=O)Nc3nc(-c4ccccc4)cs3)cc2)CC1,?,?
O=C(Cc1n[nH]c(=O)c2ccccc12)Nc1ccc(F)cc1F,19%,-2%

# Complete entries as entered above.
# Results for Cc1ccc(C(=O)c2cccc(C(=O)c3ccc(C)c(C)c3)c2)cc1C = 2A firefly: 0%; StopGo RLuc: -1%
# Results for COc1cccc(C2C3=C(CCCC3=O)Nc3c(C#N)cnn32)c1OC (configuration not stated) = 2A firefly: 14%; StopGo RLuc: -2%
# Results for CCOc1ccc2nc(N3CCC(C(=O)NCCc4cc(OC)ccc4OC)CC3)sc2c1 = 2A firefly: 119%[activator]; StopGo RLuc: -5%

# Next results.
SMILES,2A firefly,StopGo RLuc
CCOC(=O)c1ccc(NC(=O)Cc2ccc(-n3c(CC)nc4cccnc43)cc2)cc1,-4%,-4%
O=C(COc1ccc(-c2nnco2)cc1)c1ccc(F)cc1,0%,16%
Cc1cc(C)n(C(=O)c2ccc(C)c(S(=O)(=O)N3CCOCC3)c2)n1,9%,1%
CCCCCCCCCCCC(=O)N/N=C/C(CC)CCCC (configuration not stated),-9%,-3%
COc1cc(C(=O)Nc2cccc(NC(=O)C(C)n3cccn3)c2)cc(Cl)c1OC (configuration not stated),3%,13%
O=C(Cc1ccc(Cl)cc1)Nc1ccc2nn(-c3ccccc3)nc2c1,0%,10%
CC(C)OCCCNc1sc(S(=O)(=O)c2ccccc2)nc1S(=O)(=O)c1ccc(Cl)cc1,-11%,138%[activator]
CCN(Cc1ccc(Cl)s1)C(=O)c1cnccn1,1%,-4%
c1coc(-c2nc(-c3ccc4c(c3)OCCCO4)cs2)c1,150%[activator],-14%
CS(=O)(=O)NC1CCN(S(=O)(=O)c2ccsc2C(=O)O)CC1,1%,-4%[1.06 µM]
CCCNc1c(NC(=O)c2ccc(C(C)(C)C)cc2)c(=O)oc2ccccc12,4%,30%[activator]
COc1ccc(NC(=O)Cn2nc(C)c3nn(-c4ccc(Cl)cc4)c(C)c3c2=O)cc1,10%,-15%
CCN(CC)S(=O)(=O)c1ccc2[nH]c(=O)cc(C(=O)NCc3ccc(CN(C)C)cc3)c2c1,-3%,-10%
CCN1CCN(C(c2ccccc2)c2c(O)cc(C)n(Cc3ccco3)c2=O)CC1 (configuration not stated),-10%,12%
CCc1ccc(Nc2nc(-c3ccc4c(c3)CC(=O)N4)cs2)cc1,?,6%
CCCCCCCCCCCC(=O)Nc1ccc(C)c(C)c1,-4%,-6%
O=C(Nc1ccc(Sc2ccc(Br)cc2)cc1)c1n[nH]c(=O)c2ccccc12,-8%,-9%
CCC(C)Sc1c(C(C)C)cnc2c1c(=O)n(C)c(=O)n2C (configuration not stated),-8%,62%[activator]
CC(=O)c1ccc(NC(=O)c2ccc(-c3nc(CSc4ccc(C)cc4)c(C)o3)cc2)cc1,-1%,23%
CCOC(=O)c1ccc(NC(=O)c2ncoc2-c2ccc(OC)cc2)cc1,-2%,-13%
CCOC(=O)Cc1csc(NC(=O)c2[nH]c3c(c2C)C(=O)CCC3)n1,26%,?
NC(=O)Cc1csc(NC(=O)CCc2ncc(-c3ccc(F)cc3F)o2)n1,32%[activator],-3%
CCOC(=O)CSCc1cccc(Cl)c1,13%,-5%
Cc1ccc(Cl)cc1NC(=O)CN1CCN(S(=O)(=O)c2cccs2)CC1,5%,2%
CC(C)Oc1ccc2c(=O)c(Oc3ccccc3)coc2c1,117%[activator],29%
CCOC(=O)c1ccc2c(c1)N(Cc1cccc(OC)c1)C(=O)c1ccccc1S2(=O)=O,-1%,92%[activator]
c1ccc(-c2cc(-c3ccccc3)n(-c3ccccc3)n2)cc1,64%[activator],17%
CC(OC(=O)c1csc(NCc2ccccc2)n1)C(=O)N(C)Cc1ccccc1 (configuration not stated),-23%,-15%
CC(=O)/C=C/c1ccc2ccccc2n1,63%[activator],120%[activator]
CCCCOc1ccc(C2c3c(oc4ccccc4c3=O)C(=O)N2c2nc(C)c(C(=O)OCC)s2)cc1OC (configuration not stated),-20%,-14%
N#Cc1ccccc1COC(=O)c1c(F)cccc1Cl,1%,2%
CN1CCN(C(CNC(=O)C(=O)Nc2ccc(Cl)cc2)c2cccnc2)CC1 (configuration not stated),-7%,-2%
Cc1cc(C)cc(Nc2cc(C(=O)NCCCN(C)C3CCCCC3)c3ccccc3n2)c1,-15%,-5%
Cc1ccc(Cn2ccn(Cc3cccc(C(F)(F)F)c3)c(=O)c2=O)cc1,-20%,-15%
O=C(Nc1ccc(OC(F)(F)F)cc1)c1cc(-c2ccc(Cl)cc2)on1,-11%,-6%
C#C[C@]1(O)C=C[C@H]2[C@@H]3CCC4=CC(=O)CC[C@@H]4[C@H]3CC[C@@]21CC,-5%[11.5 µM],5%
CCOc1cc(C#N)ccc1OCC(=O)c1ccc2c(c1)CCCC2,-3%,47%[activator]
Cc1nc(NC(=O)c2ccccc2)sc1-c1csc(Nc2cccc(Br)c2)n1,0%,5%
CCc1ccc(OCCNC(=S)NC23CC4CC(CC(C4)C2)C3)cc1,6%,2%
O=C(Nc1ccc2ccccc2c1)C1CCCCC1,317%[activator],24%
COc1cc(C2CC(=O)Nc3c(-c4cccc(F)c4)nsc32)c(OC)c2c1OCO2 (configuration not stated),-23%,-13%
Cc1ccc(NC(=O)COCc2cc(-c3cccs3)on2)cc1Cl,21%,41%[activator]
Cc1cc(C)c(-n2ccc(C=O)c2)c(C)c1,0%,-7%[1.06 µM]
Cc1ccc(-c2nn(CCC(=O)NC(C)c3ccccc3)c(=O)c3ccccc23)cc1 (configuration not stated),12%,14%
COc1ccc(-c2c(C)nn3c2NC(=O)CCC3=O)cc1S(=O)(=O)Nc1ccc(C(C)C)cc1,10%,119%[activator]

# Screening results (PubChem)
